# Cruzain Triton = blocks cruzain activity in presence of Triton detergent; purified cruzain, Z-FR-AMC fluorescence, 0.01% Triton; Potency, µM, for inactives: max response, negative = inhibition, hits mostly inhibitors; 0.43% of 200,000 active; active means well fitted curve in the direction sought with a large enough effect; inconclusive means small, poorly fitted or top-dose-only effect, or another doubt; inactive means no such curve, though single readings can be large; an effect the other way counts as inactive or inconclusive;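 further: plate controls were neutral wells for no effect and buffer without enzyme for full effect; nearly all actives have a fitted effect of over 40% in size; top concentration of the series not given in the record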
# Target sequence (P25779 123-467 limits assumed): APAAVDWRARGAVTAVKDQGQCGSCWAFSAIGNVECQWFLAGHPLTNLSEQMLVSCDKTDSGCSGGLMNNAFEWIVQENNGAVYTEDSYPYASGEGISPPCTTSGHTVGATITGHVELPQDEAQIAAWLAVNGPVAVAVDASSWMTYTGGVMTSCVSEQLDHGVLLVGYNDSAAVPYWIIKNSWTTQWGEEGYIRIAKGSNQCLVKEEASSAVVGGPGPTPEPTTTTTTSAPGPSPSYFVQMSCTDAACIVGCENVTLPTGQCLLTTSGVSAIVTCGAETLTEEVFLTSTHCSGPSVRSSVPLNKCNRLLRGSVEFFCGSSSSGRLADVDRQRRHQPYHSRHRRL
#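 Purified cruzain (1.5 nM final) was preincubated with compounds for 15 min at room temperature in 100 mM sodium acetate pH 5.5, 5 mM DTT, 0.01% Triton X-100. Reaction started with 2 uM Z-FR-AMC; AMC fluorescence change over 60 s gave activity.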
# SARS PLP yeast = blocks SARS-CoV papain-like protease in a yeast assay; S. cerevisiae expressing SARS-CoV PLpro, growth rescue; control for the full effect not named in the record; Potency, µM (top dose mostly 32.9 µM), without a hit: top-dose activity, positive = growth rescue; 0.19% of 330,000 active; further: 0% is about no effect; nearly all actives have a fitted effect of over 55% in size; growth read by luminescence after 48 h
# RE007 growth inh = less growth of the S. pombe RE007 Vpr strain | S. pombe RE007 Vpr strain, BacTiter-Glo ATP luminescence, 24 h; control for the full effect not named in the record | Potency, µM (doses to about 92.2 µM), for the others: at the highest dose activity change, negative = less growth | 0.21% of 360,000 active | AID 651644; active = well fitted falling curve with a large enough effect; inconclusive = small, poorly fitted or top-dose-only effect; inactive = no such curve, though single readings can be large or run the other way;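 further: on the % scale 0 is the no-effect control and ±100 the full control effect; nearly all actives have a fitted effect of over 50% in size; the assay follows cell death caused by Vpr and the record does not say whether a fall means rescue or toxicity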
#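 Fission yeast strain RE007, carrying one chromosomally integrated HIV-1 vpr copy, was seeded at OD 0.01 in PMG+AL medium with 23 nL pinned compound. After 24 h at 30 °C and 99% humidity, viability was read by BacTiter-Glo luminescence.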
# Lassa entry inh = inhibitors of Lassa virus binding or cell entry | Lassa virus pseudotype entry inhibition, cell reporter; control for the full effect not named in the record | Potency, µM (highest dose often 37.9 µM), inactives show at the top dose activity change, negative = inhibition, usual class: inhibitors | 1.2% of 300,000 active | AID 540256; active means well fitted inhibition curve with a large enough effect; inconclusive means small, poorly fitted or top-dose-only effect, or effect the other way; inactive means flat fitted curve, though single readings scatter; tested in HEK293 cells; further: on the % scale 0 is the no-effect control and ±100 the full control effect; nearly all actives have a fitted effect of over 50% in size; luciferase read-out
# Cruzain noTriton = cruzain (T. cruzi) inhibition without detergent | purified cruzain, Z-FR-AMC fluorescence, no detergent | Potency, µM, inactives show max response, negative = inhibition, hits mostly inhibitors | 2.3% of 200,000 active; active means well fitted curve in the direction sought with a large enough effect; inconclusive means small, poorly fitted or top-dose-only effect, or another doubt; inactive means no such curve, though single readings can be large; an effect the other way counts as inactive or inconclusive;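 further: plate controls were enzyme without inhibitor for no effect and buffer without enzyme for full effect; nearly all actives have a fitted effect of over 40% in size; top concentration of the series not given in the record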
#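 Detergent-free condition (0.00005% Triton X-100) in acetate buffer pH 5.5 with DTT. 1.5 nM enzyme and compound were pre-mixed 15 min, then 2 uM Z-FR-AMC substrate added; reaction progress from fluorescence change between first and third reads (60 s).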
# MARV entry inh = Marburg virus entry inhibition; 1.8% of 300,000 active; Potency, µM (top dose mostly 37.8 µM), for inactives: at the top dose activity change, negative = inhibition, hits mostly inhibitors; Marburg virus pseudotyped entry inhibition, cell reporter; control for the full effect not named in the record; about a third of the inactives were read at about 46 µM; AID 540276; active = well fitted inhibition curve with a large enough effect; inconclusive = small, poorly fitted or top-dose-only effect, or effect the other way; inactive = flat fitted curve, though single readings scatter; tested in HEK293 cells; about a fifth of its hits are not listed in these tables; further: on the % scale 0 is the no-effect control and ±100 the full control effect; luciferase read-out
# StopGo reporter = FMDV 2A StopGo reporter, luciferase signal | human cells with a luciferase reporter of 2A StopGo recoding; control for the full effect not named in the record | Potency, µM (titrated, usually from 57.9 µM), for the others: at the highest dose signal change, negative = less light | 1.2% of 410,000 active | AID 1159524; active = well fitted falling curve with a large enough effect; inconclusive = small, poorly fitted or top-dose-only effect; inactive = no such curve, though single readings can be large or run the other way; tested in HEK293T cells; further: on the % scale 0 is the no-effect control and ±100 the full control effect; nearly all actives have a fitted effect of over 45% in size; luciferase light after 4 h
# NS1 function inh = blocks influenza NS1 protein function. S. cerevisiae slowed by influenza A NS1, growth recovery by OD600. Potency, µM (highest dose often 46.1 µM), without a hit: at the highest dose activity, positive = more growth. 0.4% of 270,000 active. AID 2326; further: actives are rising curves; nearly all actives have a fitted effect of over 50% in size
#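 In this qHTS, NS1 from influenza A is expressed in budding yeast, where it slows growth. Cells are switched from glucose to 2% galactose medium (pH 6.0, -URA), treated with compound, and growth recovery is read at OD600.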
# * hit, by the source's call; ? = inconclusive; . = not tested or not shown; & = joins results of further samples; [ ] = remark or other dose. Unless noted, the call rests on the fitted dose curve; in most records, active means well fitted rising curve with a large enough effect; inconclusive means small, poorly fitted or top-dose-only effect; inactive means no such curve, though single readings can be large or run the other way. Potency means the concentration at half of the fitted maximal effect.
1	CN(CCOc1ccccc1)C(=O)C1CCC(=O)N(CCCN2CCOCC2)C1 (stereo not given)
2	COc1cc(C(=O)NCc2ccccc2Cl)ccc1OCC(=O)N1CCOCC1
3	O=c1c2ccccc2nc(/C=C\c2cccc(Br)c2)n1-c1ccc(O)cc1
4	Cc1ccccc1NS(=O)(=O)c1ccc2[nH]cc(C(=O)NC(C)c3ccccc3)c(=O)c2c1 (stereo not given)
5	Cc1ccc(Sc2ccc(N3CCCC(C(=O)Nc4ccc(F)cc4)C3)nn2)cc1 (stereo not given)
6	O=C(CSc1nnc(-c2ccccc2)c(-c2ccccc2)n1)NCCc1ccccc1

compound no.,1,2,3,4,5,6
Cruzain Triton,.,.,-7.3%,-6.8%,-6.3%,-0.2%
SARS PLP yeast,-6%,.,.,.,.,.
RE007 growth inh,5%,-4%,.,.,.,.
Lassa entry inh,1%,-7%,?,-19%[46.1 µM],?,-7%[46.1 µM]
Cruzain noTriton,.,.,5%,-11%,-21%,0%
MARV entry inh,-15%,-1%,.,.,-16%[46.1 µM],.
StopGo reporter,-25%,-5%,-5%,-1%,-14%,-25%
NS1 function inh,-7%,.,.,.,.,.

7	Cc1ccc(-n2nc(C)c3c(C(=O)OCC(=O)N(C)C4CCS(=O)(=O)C4)cc(-c4ccccc4)nc32)cc1 (stereo not given)
8	CC(=O)Nc1ccc(SCC(=O)NCC2(N3CCCCC3)CCCCC2)cc1
9	COc1ccc(-c2ccc(S(=O)(=O)n3nc(OC(=O)c4cccs4)cc3N)cc2)cc1
10	NS(=O)(=O)c1ccc(NC(=S)NCCc2ccccc2)cc1
11	COc1ccc(-n2cc(-c3ccc(C)cc3)[n+]3c2SCC3)cc1
12	Cc1ccc(-c2cc3c(n2-c2ccc(F)cc2)CC(C)(C)CC3=O)cc1

compound no.,7,8,9,10,11,12
Cruzain Triton,-9.4%,.,.,.,-3.4%,0.8%
SARS PLP yeast,-2%,3%,0%,0%,-21%,.
RE007 growth inh,26%,-1%,1%,-4%,0%,.
Lassa entry inh,1%&3%,-23%,.,-5%,?,14%[46.1 µM]
Cruzain noTriton,?,.,.,.,-2%,12%
MARV entry inh,?,-6%,.,4%,1.3µM*,17%[46.1 µM]
StopGo reporter,-20%,-12%,24%,22%,11µM*,0%
NS1 function inh,8%,.,5%,-6%,5%,.

13	Cc1ccc(C)c(NC(=O)C(C)N(c2ccccc2)S(C)(=O)=O)c1 (stereo not given)
14	Cc1nonc1NC(=O)CSc1nnc(N)s1
15	O=C(CCCc1ccccc1)Nc1ccc(S(=O)(=O)N2CCOCC2)cc1
16	Cc1nc(-c2ccc(Cl)cc2)sc1C(=O)CBr
17	COc1ccc(NC(=O)C2CCCO2)cc1 (stereo not given)
18	CC(=O)c1ccc(S(=O)(=O)N2CCC(c3nc4ccccc4[nH]3)CC2)cc1

compound no.,13,14,15,16,17,18
Cruzain Triton,1.4%,.,.,.,0.8%,.
SARS PLP yeast,.,1%,-5%,-22%,12%,6%
RE007 growth inh,.,-29%,6%,?,0%,8%
Lassa entry inh,5%[46.1 µM],1%[46.1 µM],-16%,?,6%,11%
Cruzain noTriton,6%,.,.,.,-15%,.
MARV entry inh,-23%[46.1 µM],-13%[46.1 µM],-8%[46.1 µM],14%[46.1 µM],?,7%[46.1 µM]
StopGo reporter,-19%,-1%,-10%,17%,17%,-11%
NS1 function inh,.,7%,-9%,.,6%,9%

19	Cc1c(NS(=O)(=O)c2ccc3c(c2)CCN3C(=O)C2CC2)c(=O)n(-c2ccccc2)n1C
20	COc1ccc(OCCCC(=O)Nc2nc(-c3ccccn3)cs2)cc1
21	CCOC(=O)c1sc2nc(C)[nH]c(=O)c2c1C
22	COc1ccc(/C=C/C(=O)Nc2ccc3c(c2)OCCO3)cc1OC
23	COc1ccccc1C(=O)N(C)c1nnc(-c2ccccc2)s1
24	O=C(NCc1ccc2[nH]c3c(c2c1)CCCC3)c1ccc(S(=O)(=O)N2CCCC2)cc1

compound no.,19,20,21,22,23,24
Cruzain Triton,4.2%,.,.,-11%,.,-4.9%
SARS PLP yeast,3%,5%,-1%,-7%,2%,1%
RE007 growth inh,-18%,-6%,19%,12%,-2%,1%
Lassa entry inh,1%,?,.,?,.,?
Cruzain noTriton,4%,.,.,-7%,.,?
MARV entry inh,-16%,?,.,?,.,-4%
StopGo reporter,-1%,-2%,-3%,-23%,13%,0%
NS1 function inh,4%,3%,-1%,-11%,-50%,13µM*

25	COc1ccc(S(=O)(=O)c2ccc(OC)cc2)cc1
26	CC1CC(NC(=O)CC#N)CC(C)(C)C1 (stereo not given)
27	O=C(Nc1c(C(=O)Nc2ccccc2)cnn1-c1ccccc1)c1ccco1
28	CC(Oc1ccccc1)C(=O)N=C1SC2CS(=O)(=O)CC2N1c1ccccc1 (stereo not given)
29	CC(NS(=O)(=O)c1ccccc1Cl)C1CC2CCC1C2 (stereo not given)
30	Cc1cc(C)c(NC(=O)Cn2nnc(S(=O)(=O)c3ccc(C)c(C)c3)c2N)c(C)c1

compound no.,25,26,27,28,29,30
Cruzain Triton,1.0%,.,-0.4%,.,.,-13%
SARS PLP yeast,2%,1%,3%,28%,-4%,.
RE007 growth inh,5%,7%,-5%,-5%,-4%,.
Lassa entry inh,-6%,0%,11%,.,-1%[46.1 µM],-9%[46.1 µM]
Cruzain noTriton,4%,.,-6%,.,.,?
MARV entry inh,?,2%[46.1 µM],9%,.,-21%[46.1 µM],-19%[46.1 µM]
StopGo reporter,26%,7%,.,-5%,2%,-7%
NS1 function inh,-17%,0%,0%,-16%,-14%,.

31	O=C(c1ccc2c(c1)OCO2)C1CCCN(CC2CCCCC2)C1 (stereo not given)
32	c1ccc(C2CC3CC(c4ccco4)N2O3)cc1 (stereo not given)
33	Nc1ccccc1O
34	Cc1cccc(N2CCN(C(=O)/C=C/c3ccco3)CC2)c1C
35	O=C(Nc1cc(C(F)(F)F)ccc1N1CCOCC1)c1ccc(Br)o1
36	O=C(O)CCc1ccc(-c2ccccc2)n1CC(=O)O

compound no.,31,32,33,34,35,36
Cruzain Triton,.,-1.1%,-3.0%,-11%,-6.7%,3.7%
SARS PLP yeast,1%,5%,-1%,-25%,.,17%
RE007 growth inh,-9%,-19%,-20%,5%,3%,-7%
Lassa entry inh,-21%[46.1 µM],8%,.,-10%,-4%,-8%
Cruzain noTriton,.,-1%,-8%,1%,18%,11%
MARV entry inh,?,1%,.,-23%,-24%,5%
StopGo reporter,6%,-2%,-6%,-15%,-21%,5%
NS1 function inh,-2%,19%,.,-8%,-14%,13%

# Another view of part of the listing above:
# Every second line gives: Cruzain Triton	SARS PLP yeast	RE007 growth inh	Lassa entry inh	Cruzain noTriton	MARV entry inh	StopGo reporter	NS1 function inh
(10) NS(=O)(=O)c1ccc(NC(=S)NCCc2ccccc2)cc1
→ .	0%	-4%	-5%	.	4%	22%	-6%
(15) O=C(CCCc1ccccc1)Nc1ccc(S(=O)(=O)N2CCOCC2)cc1
→ .	-5%	6%	-16%	.	-8%[46.1 µM]	-10%	-9%
(30) Cc1cc(C)c(NC(=O)Cn2nnc(S(=O)(=O)c3ccc(C)c(C)c3)c2N)c(C)c1
→ -13%	.	.	-9%[46.1 µM]	?	-19%[46.1 µM]	-7%	.
(29) CC(NS(=O)(=O)c1ccccc1Cl)C1CC2CCC1C2 (stereo not given)
→ .	-4%	-4%	-1%[46.1 µM]	.	-21%[46.1 µM]	2%	-14%
(33) Nc1ccccc1O
→ -3.0%	-1%	-20%	.	-8%	.	-6%	.
(16) Cc1nc(-c2ccc(Cl)cc2)sc1C(=O)CBr
→ .	-22%	?	?	.	14%[46.1 µM]	17%	.

# (list continues)
37	Cc1cc(C)n(CCN(C)Cc2nc(Cc3ccccc3F)no2)n1
38	O=C(NCC1CCN(S(=O)(=O)c2ccccc2)CC1)Nc1ccc(F)cc1
39	COc1cccc(C2OC(=O)c3ccccc3N2C(C)=O)c1OC(C)=O (stereo not given)
40	CCCCNc1cc(C)oc(=O)c1C(C)=O
41	Cc1ccc(C(=O)Nc2ccc3c(c2)OCCO3)o1
42	CCO[C@@H]1OC(C(=O)Nc2ccccc2)=C[C@H](c2csc3ccccc23)[C@H]1CCCO

compound no.,37,38,39,40,41,42
Cruzain Triton,.,.,4.2%,3.3%,-1.5%,.
SARS PLP yeast,-2%,0%,5%,2%,-15%,1%
RE007 growth inh,-11%,-21%,4%,12%,-13%,9%
Lassa entry inh,-7%,?,-15%,1%,?,.
Cruzain noTriton,.,.,4%,7%,-6%,.
MARV entry inh,4%[46.1 µM],?,-12%[46.1 µM],0%,?,.
StopGo reporter,22%,-28%,7%,-14%,.,-11%
NS1 function inh,2%,1%,5%,-6%,-16%,5%

43	CC(=O)Nc1ccc(NC(=O)C(C)OC(=O)C23CC4CC(CC(Cl)(C4)C2)C3)cc1 (stereo not given)
44	Cc1ccc(S(=O)(=O)N(C)CC(=O)Nc2cccc(C)n2)cc1
45	S=c1nc(-c2cc(Cl)ccc2Cl)[nH][nH]1
46	OC(CN1C2=NCCN2c2ccccc21)c1ccc2c(c1)OCO2 (stereo not given)
47	O=c1c2ccccc2c(/C=N/NS(=O)(=O)c2ccccc2)c(O)n1-c1ccccn1
48	CCSC1=N/C(=C\c2ccc(C(=O)O)cc2)C(=O)S1

compound no.,43,44,45,46,47,48
Cruzain Triton,.,1.2%,.,3.4%,.,-3.6%
SARS PLP yeast,2%,6%,3%,-3%,1%,2%
RE007 growth inh,1%,-1%,?,-3%,10%,?
Lassa entry inh,-1%[46.1 µM],-5%,-9%,?,6%,6%
Cruzain noTriton,.,8%,.,5%,.,?
MARV entry inh,?,-12%,0%,?,9%[46.1 µM],19%
StopGo reporter,-29%,-22%,1%,12%,-6%,-3%
NS1 function inh,.,-5%,.,0%,.,-87%

# Bioassay records: PubChem BioAssay, National Center for Advancing Translational Sciences (NCATS)
